Screening data deposited in PubChem BioAssay by Broad Institute.
Tgondii IFNg – T. gondii growth inhibition with IFN-gamma, primary screen, cell-based. Toxoplasma gondii growth in IFN-gamma-treated host cells; stronger effect = lower value; reference of the scale not given here. activity change, negative = inhibition, %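 (about 20 µM by stock and volumes)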. actives 3.8% (n = 69,000). AID 1259416, 2018;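 active means below -70%; inconclusive means fit judged invalid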;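 further: host cells are HeLa cells infected with Toxoplasma gondii; parasite growth read as luciferase light; one replicate is shown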
An asterisk follows results filed as active; i = inactive; ? = inconclusive; ! = not confirmed by another sample.

SMILES	Tgondii IFNg
Cc1cnn(C)c1NC(=O)c1cccc(CN2CC[C@@H]3CCCC[C@H]3C2)c1	1
Cc1ccccc1-n1cc(CNc2ccc(-c3nccn3C)nn2)cn1	33
CCc1ccc(-c2noc(-c3c(O)c4cc(F)ccc4n(C)c3=O)n2)cc1	29
Cc1ccc(NC(=O)N2CCc3nc(CNC(=O)C4CCC4)n(C)c3C2)cc1	-53
O=C(NCCc1csc(-c2cccc(F)c2)n1)c1cc2ccccc2oc1=O	40
O=C1[C@H](Cc2ccc(F)cc2)CCn2cc(nn2)COC[C@H]2CCCN12	-41
COc1ccccc1CNC(=O)CN1C(=O)CCc2cc(S(=O)(=O)N3CCC(C)CC3)ccc21	21
CCOC(=O)c1cnn(C)c1NS(=O)(=O)c1ccc(Cl)cc1	-62
C[N+]1(C)C2CC[C@H]1CC(OC(=O)C(O)c1ccccc1)C2 (stereo partly drawn)	-9
Cc1nn(Cc2nc(N3CCCC3)nc3c2CCCC3)c(C)c1Cl	-13

In another format: entries from further up
compound,Tgondii IFNg
O=C1[C@H](Cc2ccc(F)cc2)CCn2cc(nn2)COC[C@H]2CCCN12,-41
Cc1cnn(C)c1NC(=O)c1cccc(CN2CC[C@@H]3CCCC[C@H]3C2)c1,1
COc1ccccc1CNC(=O)CN1C(=O)CCc2cc(S(=O)(=O)N3CCC(C)CC3)ccc21,21
C[N+]1(C)C2CC[C@H]1CC(OC(=O)C(O)c1ccccc1)C2 (stereo partly drawn),-9
O=C(NCCc1csc(-c2cccc(F)c2)n1)c1cc2ccccc2oc1=O,40

Next results
SMILES	Tgondii IFNg
CCO[C@H]1COC[C@@H]1NC(=O)c1cc(CN2CCCC2)c(CC)o1	-3
O=C(CNCc1ccco1)Nc1ccc(S(=O)(=O)N2CCOCC2)cc1	-19
Cc1nccn1-c1ccccc1CNC(=O)[C@@H](O)c1ccccc1	-4
CCc1cnc(N2CCC3(CC(Nc4ncccc4F)CO3)C2)nc1 (stereo not drawn)	-5
CC(C)=CC(=O)N(CCO)Cc1ccccc1C	-4
CCN(CC)C(=O)C1Cn2ccnc2C2(CCN(C(=O)Nc3ccccc3C)CC2)O1 (stereo not drawn)	7
COc1ccc(CCN2C(=O)N(C)C(=O)C23CCN(C/C=C/c2ccccc2OC)CC3)cc1	7
CCCN1CCC2(CC1)C(c1ccccc1)CC(=O)N2CCOC (stereo not drawn)	-10
Cc1cc2c(cc1Cl)C(O)CC1(CCN(CC(O)c3ccc4c(c3)CCO4)CC1)O2 (stereo not drawn)	-46
COc1cccc(CN(C)Cc2cc3ccc(F)cc3[nH]c2=O)c1	10
Cc1cc(C)c(-c2nccn2Cc2cccnc2-n2cncn2)cc1C	-15
CCCCCCCCCCCC1=NCCN1CCO	?
Cc1cc(C)n(Cc2nc(-c3ccc(NC(=O)Cc4ccc(F)cc4)cc3)oc2C)n1	53
O=C1NCCN(Cc2ccccc2C(F)(F)F)C1CC(=O)N1CCCO1 (stereo not drawn)	3
Cc1cnc(NCc2ccc3c(c2)OCCCO3)nc1N(C)C	8
Cc1cccc2c3c([nH]c12)CCN(C(=O)c1sc2nc4n(c(=O)c2c1C)CCC4)C3	17
CCc1nc(SCC(=O)Nc2c(C)cccc2C)c2oc3ccccc3c2n1	57
COc1cccc(-c2cccc(CN3CCC(C(N)=O)(N4CCOCC4)CC3)c2)c1	5
Cn1ccnc1CN1C[C@@H](c2ccccc2)[C@@]2(CCNC2=O)C1	i
C=CCOCC1CN(Cc2cnn(C)c2)Cc2nnn(CC)c21 (stereo not drawn)	203
COc1cccc(OC)c1C(O)c1nc(-c2ccncc2)cc2ncccc12 (stereo not drawn)	18
CCCCn1c(=O)c2[nH]c(C34CC5CC(CC3C5)C4)nc2n(CCCO)c1=O	5
CC(=O)N1CCCC1C(=O)O (stereo not drawn)	13
O=C(Cc1cccc2ccccc12)NC1CCCCNC1=O (stereo not drawn)	33
CCn1ccnc1CN1CCCN(c2ccccc2C)CC1	-10
Cc1cc(N(C)C)cc(C2CCNC2)n1 (stereo not drawn)	-38
O=C1COC2(CCN(Cc3ccncc3)CC2)CN1Cc1ccccn1	5
CC(C)N(C)CC1CN(c2ncccn2)Cc2nccn2C1 (stereo not drawn)	0
O=S(=O)(C1CC1)N1CCOC2(CCCN(c3ccccc3)C2)C1 (stereo not drawn)	-42
Cc1ccc(Nc2nc(C(=O)NCc3cccnc3)nc3ccccc23)cc1	-82*
Cn1ccn2ncc(C(=O)NCc3nncn3C3CCCCC3)c12	-1
Cc1nc2ccccc2n1CC(=O)N[C@@H](C)Cn1nnc2ccccc21	-3
CC(C)=CCC/C(C)=C/CC/C(C)=N/O	4
O=C(Cc1ccccc1F)N1C[C@@H]2CN(CC3CC3)CCO[C@@H]2C1	0
Cc1ccc(C2(CN3CCOc4ccccc4C3)CCNCC2)nc1	-1
COc1ncccc1-c1cc(C(=O)NC2CC2)ccn1	40
CN(CCC(=O)N(C)C1Cc2ccccc2C1)C1CCS(=O)(=O)C1 (stereo not drawn)	2
CN(Cc1cnn(-c2ccc(F)cc2)c1)Cc1cccc2nccnc12	-6
CCc1oc(C(=O)N2CCCC3(CNC(=O)O3)C2)cc1CN(CC)CC (stereo not drawn)	-3
O=C1CCc2cc(S(=O)(=O)NC(c3ccccc3)c3ccccc3)cc3c2N1CCC3	-25
CCc1ccccc1N1CCN(C(=O)CC(=O)Nc2ccccc2C)CC1	22
CCOc1ccccc1CNC(=O)c1nc(Nc2ccc(F)cc2)c2ccccc2n1	-33
CCc1ccc(S(=O)(=O)N2CC[C@H](O)[C@@H]2Cc2cnn(C)c2)cc1	-10
COc1ccc2c3c([nH]c2c1)[C@@H](CO)N(C)CC31CCN(S(=O)(=O)c2cn(C)cn2)CC1	141
O=S(=O)(NCc1ccc2c(c1)OCO2)c1cccc2cccnc12	58
CS(=O)(=O)N1CCC2(CC1)CC(=O)N(CC1CCCO1)c1ccccc12 (stereo not drawn)	10
COc1cc2[nH]c3c(=O)n(CCC(=O)N4CCN(c5ccccn5)CC4)cnc3c2cc1OC	27
COc1ccccc1-c1ccc([C@@H]2[C@@H](C#N)N(C(=O)c3cccnc3)[C@@H]2CO)cc1	-23
O=C(Cn1c(=O)cc(C(=O)N2CCCC2)c2ccccc21)Nc1cccc(C(F)(F)F)c1	-4
COc1cccc(-c2ccc3c(c2)[C@@H]2[C@@H](CCN2S(=O)(=O)c2cn(C)cn2)[C@H](CO)N3)c1	12
(cont.)
SMILES	Tgondii IFNg
O=C(O)c1cc(-c2ccco2)nc2ccccc12	84
Cc1cc(C)c2[nH]c(C)c(CC(=O)N3CCC4(CC3)NC(=O)N(C)C4=O)c2c1	-1
CC(NCCC(c1ccccc1)c1ccccc1)c1ccccc1 (stereo not drawn)	-82*!
Cc1cc(C(F)F)nn1CC(=O)N1C2CCC1CC(O)(Cn1ccc3ccncc31)C2 (stereo not drawn)	-23
CC(C)CN(Cc1ccccn1)C(=O)c1coc2c1C(=O)CCC2	-33
CC(C)c1ncc(CNC2(c3ccc(Cl)cc3)CCC2)cn1	32
Cc1cc(N(C)CCO)nc(-c2cccnc2)n1	-6
Cc1ccc(-c2nnc(-c3nc(NC(C)c4ccccc4)c4ccccc4n3)o2)cc1 (stereo not drawn)	-63
CC(C)CC(NS(=O)(=O)c1ccc2[nH]c(=O)ccc2c1)C(=O)NC1CCCCC1 (stereo not drawn)	23
Cc1oc2cc3c(C(=O)OCCN(C)C)c(C)oc3cc2c1C(=O)OCCN(C)C	38
O=C(Cn1ncc2c(N3CCN(c4ccccn4)CC3)ncnc21)NCc1ccccc1	-105*
Cc1cc(C)n(-c2nc(C(=O)O)cs2)n1	24
CCS(=O)(=O)N1C[C@H]2CCC[C@]2(COCc2ccncc2)C1	1
O=C(NCCn1[nH]c(=O)ccc1=O)c1ccccc1N1CCCC1	10
CCC(=O)N1[C@@H](CO)[C@@H](c2ccc(-c3cccc(OC)c3)cc2)C12CN(C(C)=O)C2	-22
COCCCNC(=O)Cn1ncc2c(N3CCCCCC3)ncnc21	170
Nc1nnc(Sc2ncc([N+](=O)[O-])s2)s1	12
CCCN(C[C@H]1N[C@H](CO)[C@@H]1c1ccccc1)C(=O)COC	-27
CO[C@@H](CN(C)C(=O)c1cc(Cl)cc(Cl)c1)[C@@H](C)CN(C(=O)Nc1ccc(F)cc1)[C@@H](C)CO	36
COC(=O)c1cc2n(n1)CCCN(C(=O)C(=O)Nc1ccc(F)cc1)C2	-1
Cc1nc(N)c2ccc(C3CCCCN3C(=O)c3ccccc3)nc2n1 (stereo not drawn)	1
N#C[C@@H]1[C@H](c2ccc(-c3cccc(F)c3)cc2)[C@@H](CO)N1c1nc(-c2ccccc2)cs1	-14
COc1ccc(C2=Nn3c(nc4sc(C)c(C)c4c3=O)SC2)cc1	11
CC1(C)CC(NC(=O)c2ccc(N3CCOCC3)cc2)c2ccccc2O1 (stereo not drawn)	7
CC(=O)Nc1ncc(S(=O)(=O)N2CCCC(c3cc4ncccc4[nH]3)C2)s1 (stereo not drawn)	-1
O=C1C2C3C=CC(C3)C2C(=O)N1c1nccs1 (stereo not drawn)	2
Cc1noc(C)c1NC(=O)Nc1ccc2c(c1)C(=O)N([C@@H](C)CO)C[C@@H](C)[C@@H](CN(C)S(=O)(=O)c1ccc(F)cc1)O2	2
CN1CCN(C(=O)C2(c3ccccc3F)CC2)CC1C(=O)O (stereo not drawn)	1
CCC1C=CCN1C(=O)c1cnc(N2CCOCC2)nc1 (stereo not drawn)	-6
CN(C)CC(=O)N1[C@@H](CO)[C@@H](c2ccccc2)C12CN(CCC(F)(F)F)C2	-17
O=C(CCc1cc(=O)[nH]o1)NCc1cccnc1N1CCc2ccccc2C1	8
Clc1ccc(-c2nc(NCc3ccc4c(c3)OCO4)ncc2-c2ncc[nH]2)cc1	-106*
C=CCN(Cc1ccccc1OCC)C(=O)c1c(C)nc2ncccn12	-2
CC(=O)N1CCc2c(nc(-c3ccncc3)nc2NCc2cc(C)[nH]n2)C1	-44
Cc1nc(C(C)N(C)Cc2cnc(N3CCCC3)nc2)c(C)s1 (stereo not drawn)	1
CC(c1ccncn1)N(C)C(=O)c1cn(-c2ccccc2)nn1 (stereo not drawn)	-2
COc1cccc(-c2nc(Cn3nnc(C(=O)Nc4cccc(C(F)(F)F)c4)c3C)c(C)o2)c1OC	-17
Cc1ccc(S(=O)(=O)N2CCC3(CC3C(=O)NCc3ccncc3)C2)cc1F (stereo not drawn)	-10
O=C(c1ncn[nH]1)N(Cc1cccc(Cl)c1)C1CC1	2
COc1ccccc1CN(Cc1cn[nH]c1-c1ccc(F)cc1)C1CC1	3
CCCCc1c(-c2ccccc2)ncn1C(C)Cc1cnccn1 (stereo not drawn)	-1
CC(C)c1nc(CCNC(=O)c2ccc(C3CCNC3)cc2)cs1 (stereo not drawn)	2
COc1c(C)c(C(=O)c2ccc(N)c(C(=O)O)c2)n2ccccc12	28
CCOC(=O)C(NC(=O)C1CCC(c2ccc(Cl)cc2)CC1)c1ccccc1 (stereo not drawn)	-12
CN1CCN([C@@H]2CCN(c3ncnc4c3CCC4)C[C@H]2O)CC1	-7
COC(=O)C1=C(C)NC(C)=C(C(=O)O[C@@H]2CCCN(Cc3ccccc3)C2)[C@@H]1c1cccc([N+](=O)[O-])c1	32
NC(=O)c1cncc(N2Cc3cnn(Cc4ccc(F)cc4)c3C2)n1	8
C=C(C)Cn1c(SCc2ccccc2)nc2scc(-c3ccc(Cl)cc3)c2c1=O	-11
CCCCc1ncc(CN2CCN(c3ncnc4ccccc34)CC2)[nH]1	-2
Cc1cccc(-c2nc(C)c(CCNC(=O)C(=O)Nc3ccc(C)c(Cl)c3)s2)c1	86

Filtered by structure, the entries above containing an aryl thioether with sulfur outside any ring.
SMILES	Tgondii IFNg
CCc1nc(SCC(=O)Nc2c(C)cccc2C)c2oc3ccccc3c2n1	57
Nc1nnc(Sc2ncc([N+](=O)[O-])s2)s1	12
C=C(C)Cn1c(SCc2ccccc2)nc2scc(-c3ccc(Cl)cc3)c2c1=O	-11

Next entries
SMILES	Tgondii IFNg
Cc1ccc(C(c2c(C)[nH]n(-c3ccccc3)c2=O)c2c(C)[nH]n(-c3ccccc3)c2=O)o1	52
CSc1nccc(NCc2cccc(C)n2)n1	0
CN(C)C(=O)N1CCCn2nnc(COCC3CC3)c2C1	2
COc1cccc(CNC(=O)Cn2c(=O)cc(C(=O)N3CCc4ccccc4C3)c3ccccc32)c1	-9
CC(=O)N1CCn2c(COCc3ccccn3)cnc2C1C (stereo not drawn)	0
C=CCNc1ccccc1C(=O)N(Cc1ccc2c(c1)OCO2)C1CC1	-1
COc1cc2c(cc1OC)C1c3ccccc3N(Cc3ccccc3)C(=O)N1CC2 (stereo not drawn)	-3
Cc1nc(C)c(-c2ccc(-n3cccn3)cc2)s1	101
CC(C)Nc1ccnc(C2COCCN2CC2CCOCC2)n1 (stereo not drawn)	2
Cc1ccnn1CCNC(=O)c1cccc(-c2ncn[nH]2)c1	-18
Cc1nn(C)cc1S(=O)(=O)N1CCCC(CN2CCCC2=O)C1 (stereo not drawn)	32
Nc1cncc(-n2ccnc2-c2cccnc2)c1	3
Cc1nc(CC(=O)N(C)Cc2cn[nH]c2-c2ccc(F)cc2)cs1	-16
Cc1ccc(C(=O)Nc2ccc(-c3nc(Cn4nc(C)c(C)c4C)c(C)o3)cc2)cc1	-88*

Ordered by heavy-atom count (high to low): part of the list above.
SMILES	Tgondii IFNg
CO[C@@H](CN(C)C(=O)c1cc(Cl)cc(Cl)c1)[C@@H](C)CN(C(=O)Nc1ccc(F)cc1)[C@@H](C)CO	36
COc1cc2c(cc1OC)C1c3ccccc3N(Cc3ccccc3)C(=O)N1CC2 (stereo not drawn)	-3
O=C1COC2(CCN(Cc3ccncc3)CC2)CN1Cc1ccccn1	5
Cc1nccn1-c1ccccc1CNC(=O)[C@@H](O)c1ccccc1	-4

Single values from the list:
Cc1nc(CC(=O)N(C)Cc2cn[nH]c2-c2ccc(F)cc2)cs1 – Tgondii IFNg: -16
Cc1nn(C)cc1S(=O)(=O)N1CCCC(CN2CCCC2=O)C1 (stereo not drawn) – Tgondii IFNg: 32

Some of the compounds tested; the hit share may differ from the screen's.
